# Compound activity deposited in PubChem by several laboratories.
# YopH inh – blocks Yersinia enterocolitica YopH tyrosine phosphatase | fluorescence Ex485/Em525 | inhibition, %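 (about 10 µM by stock and volumes)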 | AID 898 | 140,000 tested, 0.16% active;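 active = inhibition of 50% or more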;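 note: controls were vehicle for no effect and minimum signal wells for full effect; inactives centre near -20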
# Arbovirus inh – antivirals against arbovirus infection. arbovirus infection cell-based antiviral screen. inhibition, % at 10 µM. 200,000 tested, 0.37% active. AID 1251;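 active = inhibition from about 30%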;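 note: bluetongue infection of BSR cells; cell survival read as ATP light after 72 h; 0% = infected wells without compound and 100% = uninfected wells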
# RecA splice inh – Mtb RecA intein splicing inhibition | P9WHJ3 | cell-free RecA intein splicing, fluorescence | inhibition, %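 (about 9 µM by stock and volumes)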 | 290,000 tested, 0.75% active | AID 2221; in the data active = inhibition above about 30%; inconclusive = no clear call, values can overlap the other calls;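 note: 0% = vehicle wells and 100% = reference inhibitor control wells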
# Target sequence (P9WHJ3 whole entry, looked up, canonical isoform): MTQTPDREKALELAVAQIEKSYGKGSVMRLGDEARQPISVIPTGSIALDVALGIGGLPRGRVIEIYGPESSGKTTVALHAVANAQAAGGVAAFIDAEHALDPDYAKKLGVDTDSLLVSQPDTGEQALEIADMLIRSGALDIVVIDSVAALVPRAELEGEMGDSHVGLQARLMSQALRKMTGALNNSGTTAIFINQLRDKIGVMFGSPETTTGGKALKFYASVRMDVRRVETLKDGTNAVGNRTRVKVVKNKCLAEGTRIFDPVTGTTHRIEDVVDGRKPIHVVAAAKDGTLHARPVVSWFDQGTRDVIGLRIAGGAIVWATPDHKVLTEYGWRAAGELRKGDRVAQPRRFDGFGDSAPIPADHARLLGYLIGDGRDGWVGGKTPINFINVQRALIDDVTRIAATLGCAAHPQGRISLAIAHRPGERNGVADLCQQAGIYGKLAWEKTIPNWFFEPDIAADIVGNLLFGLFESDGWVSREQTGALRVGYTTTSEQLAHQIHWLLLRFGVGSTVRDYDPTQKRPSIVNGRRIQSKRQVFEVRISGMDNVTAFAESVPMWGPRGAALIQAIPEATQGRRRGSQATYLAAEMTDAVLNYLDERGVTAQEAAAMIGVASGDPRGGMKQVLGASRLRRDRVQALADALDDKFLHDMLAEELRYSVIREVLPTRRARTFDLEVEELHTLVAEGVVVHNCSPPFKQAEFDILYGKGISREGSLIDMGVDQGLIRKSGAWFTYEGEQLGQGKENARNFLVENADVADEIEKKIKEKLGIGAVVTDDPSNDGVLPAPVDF
# Mtb bLac sens – beta-lactam sensitization of Mtb H37Rv; inhibition, % at 25 µM; M. tuberculosis H37Rv growth with meropenem, percent inhibition; hits of this screen are not shown here; 330,000 tested, 0.27% active;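 active = about 74% or more and at least 40 points above the plate without the antibiotic, then above 30% in a dose series; inconclusive = first-round hits that could not be retested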;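 note: growth measured after seven days incubation then overnight dye step; 0% = bacteria only wells and 100% = bacteria with antibiotic; twin plates without the antibiotic show which effects depend on it; some results filed as inactive read as strong as hits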
# Mtb growth – M. tuberculosis H37Rv growth inhibitors, H37Rv strain (AID 1626) | M. tuberculosis H37Rv growth inhibition; higher % means a stronger effect | one-dose inhibition, % at 10 µM; IC50 in µM for titrated hits | 220,000 tested, 0.95% active;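 active = confirmed in a dose series; inconclusive = inhibition above 80% but not taken into the dose series; inactive = below 80% or under 30% at every dose of the series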;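 note: bacteria incubated seven days before Alamar blue readout; 0% = bacteria only wells and 100% = bacteria with antibiotic wells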
# Arbovirus inh repeat – recorded beside Arbovirus inh, whose call it bears; inhibition, %; measured here: 10K subset replicate screen; many hits read low in the repeat;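 first of two repeat runs on a subset; 0% = infected and 100% = uninfected wells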
# Starred values were filed as active, the others as inactive; ? = inconclusive; / = not tested or not shown. This is a subset; count on the stated rates, not on these rows.
SMILES,YopH inh,Arbovirus inh,RecA splice inh,Mtb bLac sens,Mtb growth,others
CCNC(=S)NNC(=O)c1ccc(=O)n(Cc2ccccc2)c1,/,4.1,-1.2,0.9,-1.3%,
Cn1c(=O)c2c(nc(NCc3ccccc3)n2C)n(C)c1=O,-11.9,9.2,3.4,-4.3,-2.6%,Arbovirus inh repeat=3.9
COc1ccc(CNC(=O)CCCn2c(SCC#N)nc3cc4c(cc3c2=O)OCO4)cc1,-30.6,-10.2,/,-9.2,-11.1%,
CN(C)C(=O)COC(=O)[C@H](Cc1ccccc1)NC(=O)c1ccco1,1.3,-4.4,0.2,3.7,8.7%,
COC(=O)c1ccc(C(NC(=O)c2cccnc2)NC(=O)c2cccnc2)cc1,/,4.1,-1.4,0.2,4.9%,
COc1cccc(-c2cc(C(=O)NCC3CCCO3)on2)c1 (stereo not given),/,/,0.7,3.1,/,
O=C(CNC(=O)c1ccccc1)NCC(=O)OCC(=O)c1ccc(F)cc1,13.3,9.1,-2.9,?,6.7%,
C/C(=N\N=C(N)N)c1cc(Cl)ccc1Cl,/,-3.3,0.8,0.7,4.0%,
Cc1ccc(C)c(NC(=O)CN(C)C(=O)c2ccc(-c3ccc(Cl)cc3)o2)c1,/,/,1.2,-1.4,/,
O=C(Cn1cc(C(=O)c2ccco2)c2ccccc21)NCc1ccco1,-6.1,-8.9,1.9,10.1,-12.8%,
CCOC(=O)N1CCC(n2c(SCC(=O)N3CCC(C)CC3)nc3ccccc3c2=O)CC1,-90.6,0.0,-1.7,9.0,-14.8%,
CCOc1ccc(S(=O)(=O)NCc2ccccc2)cc1C(N)=O,/,6.9,-2.2,-0.8,8.7%,
CCOc1cc(/C=N/NC(=O)C(=O)NCC2CCCO2)ccc1OCC(=O)N1CCOCC1 (stereo not given),/,/,-0.9,-4.9,-1.4%,
CCOC(=O)C1=C(C)NC(=O)NC1c1ccc(-c2ccc(F)cc2)o1 (stereo not given),/,3.0,-4.6,-0.9,1.7%,
O=C(NC(=S)Nc1ccccc1N1CCCC1)c1cccs1,/,/,9.6,57.6,2.1%,
CC(=O)Nc1ccc(NC(=O)[C@@H](NC(=O)c2ccccc2F)C(C)C)cc1,/,/,-2.2,3.2,/,
CN(C)CCCNc1oc(/C=C/c2ccccc2)nc1C#N,/,/,-33.0,-4.8,7.7%,
CC(OC(=O)C1CC(O)CN1S(=O)(=O)c1ccccc1[N+](=O)[O-])C(=O)N1CCCCC1 (stereo not given),-20.6,-1.2,-1.7,1.6,-10.7%,
FCCCOc1ccc(-c2nccc(-c3ccc(Br)cc3)n2)cc1,-35.5,3.2,-0.9,6.5,-2.2%,
O=C(CSc1nnc(-c2cnccn2)n1Cc1ccco1)c1ccccc1,-56.1,-1.7,5.0,1.2,-3.6%,

# Reprinted from the part before: five compounds, then new ones.
SMILES,YopH inh,Arbovirus inh,RecA splice inh,Mtb bLac sens,Mtb growth,others
CC(=O)Nc1ccc(NC(=O)[C@@H](NC(=O)c2ccccc2F)C(C)C)cc1,/,/,-2.2,3.2,/,
CN(C)CCCNc1oc(/C=C/c2ccccc2)nc1C#N,/,/,-33.0,-4.8,7.7%,
CC(OC(=O)C1CC(O)CN1S(=O)(=O)c1ccccc1[N+](=O)[O-])C(=O)N1CCCCC1 (stereo not given),-20.6,-1.2,-1.7,1.6,-10.7%,
FCCCOc1ccc(-c2nccc(-c3ccc(Br)cc3)n2)cc1,-35.5,3.2,-0.9,6.5,-2.2%,
O=C(CSc1nnc(-c2cnccn2)n1Cc1ccco1)c1ccccc1,-56.1,-1.7,5.0,1.2,-3.6%,
COC(=O)c1c(NC(=O)COC(=O)c2ccc(Cl)nc2)sc(C)c1C,/,/,-0.8,2.0,/,
CC(C)c1ccc(C(O)P(=O)(OCc2ccccc2)c2ccc(N(C)C)cc2)cc1 (stereo not given),/,/,-4.9,1.5,-0.3%,
CCOC(=O)C(OC(=O)c1sc(=S)n(C)c1C)C(C)=O (stereo not given),-42.8,7.3,5.3,2.9,-5.1%,
CCN(CC)S(=O)(=O)c1ccc(=O)[nH]c1,/,13.0,-4.9,1.1,-2.4%,
CNc1c(NS(=O)(=O)c2ccc(F)cc2)c(=O)oc2ccccc12,/,/,-1.1,-2.9,/,
O=[N+]([O-])C1=C(Nc2cccc3ccccc23)CS(=O)(=O)C1,-17.5,7.8,2.6,-9.3,-8.7%,
CN(C)c1cccc(N(C)C)c1CNC(=O)NC(=O)c1c(F)cccc1F,/,/,-2.3,0.3,/,
CC(=O)c1cccc(NC(=O)C(OC(=O)c2cccs2)c2ccccc2)c1 (stereo not given),-28.6,5.8,1.5,-2.0,4.9%,
O=c1[nH][nH]c(C(F)(F)F)c1C=NCc1ccccc1Cl,-7.5,-0.6,-1.7,3.9,-4.6%,
O=C(c1cccs1)[C@@H]1[C@@H]2C(=O)N(Cc3ccc4c(c3)OCO4)C(=O)[C@@H]2C2c3ccccc3C=CN21 (stereo not given in full),45.8,0.9,37.8*,3.5,/,
CC(=O)N1c2ccc(S(=O)(=O)N3CCCC(C(=O)N4CCCC(C)C4)C3)cc2CC1C (stereo not given),/,/,-2.7,-0.1,/,
O=C(N/N=C/c1cccc(C(F)(F)F)c1)c1cc2c(s1)-c1ccccc1CC2,-54.3,-8.5,-4.5,40.3,7.2%,
CCOC(=O)C1CCN(C(=O)c2cc3cc(Cl)ccc3[nH]2)CC1,/,/,3.7,3.9,/,
COC(=O)[C@@H](NC(=O)NCc1ccc(F)cc1)C(C)C,-24.7,5.9,-1.1,2.5,-0.5%,
Cc1cccc(-c2nc(CS(=O)CC(=O)N3CCN(C)CC3)c(C)o2)c1 (stereo not given),/,-1.6,-9.3,-1.6,-6.7%,Arbovirus inh repeat=-1.5
C=CCOC(=O)C1=C[C@@H](c2csc3ccccc23)C[C@@H](OCCCCO)O1,/,/,1.7,4.6,2.6%,
C=C(C)c1cccc(C(C)(C)NC(=O)Nc2ccc(Cl)cn2)c1,-27.7,-19.3,14.9,-0.9,15.7%,
COCCN(C(=O)COC(=O)/C=C/c1ccccc1Cl)c1c(N)n(Cc2ccccc2)c(=O)[nH]c1=O,/,/,1.3,-9.9,/,
O=C(CC1NCCNC1=O)Nc1ccc(Oc2ccccc2)cc1 (stereo not given),3.9,-15.4,-4.0,-3.5,1.9%,
Cc1cccnc1NC(=O)CCn1c(=O)oc2ccccc21,/,/,0.9,-3.9,/,
COc1cccc(S(=O)(=O)NCc2ccc(C(=O)NCC3CCCO3)cc2)c1 (stereo not given),19.5,4.0,1.5,-8.2,1.0%,
COc1ccc(OC)c(NC(=O)CSCc2cnn(-c3ccccc3)c2-n2cccc2)c1,-29.9,-7.7,15.8,4.2,-2.4%,
N#Cc1c(/N=C/c2ccc(-c3ccccc3C(=O)O)o2)sc2c1CCCC2,/,/,-3.2,-2.2,/,
CN(CC(=O)Nc1c(Cl)cccc1Cl)C(=O)c1ccccc1SCC(=O)N1CCCC1,/,/,0.1,11.3,/,
COc1ccc(NC(=O)Nc2nnc(C(C)(C)C)s2)cc1,/,/,3.2,-1.5,1.4%,
COc1cc(C(=O)NCc2nnc(SCC(=O)N3CCOCC3)o2)cc(OC)c1OC,/,13.7,0.0,-0.8,-3.6%,
CCN1CCn2c1nc(N1CCOCC1)nc2=O,28.6,5.6,0.6,6.9,-8.4%,
O=C(CSc1nc2ccccc2c(=O)n1-c1ccc(F)cc1F)Nc1ccc(N2CCOCC2)cc1,-3.4,1.0,6.1,1.1,5.0%,
CCOc1cc(CN2CCCC(CO)(Cc3ccc(F)cc3F)C2)ccc1OC (stereo not given),/,/,0.8,-1.6,/,
CCCCCCSc1ccc(-c2nc3ccc(C)cn3c2NCc2ccccc2)cc1OC,/,/,-0.6,-15.5,/,
COC(=O)c1cccc(N2C(=O)c3cccnc3C2=O)c1,-11.9,-7.3,/,-10.2,-5.9%,
COc1cccc(CN(C)C(=O)/C=C/c2ccc(S(=O)(=O)N3CCCCCC3)cc2)c1,/,/,5.8,7.6,/,
CCOC(=O)c1c(S(=O)(=O)N(C)Cc2ccccc2)c(C)n(C)c1C,/,/,5.2,-4.2,/,
Cc1onc(-c2ccccc2Cl)c1C(=O)N1CCc2ccccc2C1,-28.6,0.8,1.3,-1.4,4.2%,
Cc1cccc(C)c1NC(=O)COC(=O)c1cc[n+]([O-])cc1,/,/,-1.6,1.4,/,
Cc1ccc(S(=O)(=O)n2nc(C)c(Br)c2C)c(C)c1C,-5.8,6.2,3.3,3.5,-14.9%,
Cc1ccc(C2OC(=O)c3ccccc32)cc1 (stereo not given),-10.6,-1.2,-1.2,-7.4,-0.5%,
Cn1nnnc1SCC(=O)Nc1cc(S(=O)(=O)N2CCCC2)ccc1Cl,/,9.1,-4.8,1.4,2.0%,
Cc1noc(C)c1COC(=O)c1ccc2ccccc2n1,-45.8,10.6,1.8,85.6,25.0%,
Cc1cccc(NC(=O)c2csnn2)n1,/,-3.4,-1.4,-3.3,0.3%,

# Four records drawn at random from those above, as already listed:
SMILES,YopH inh,Arbovirus inh,RecA splice inh,Mtb bLac sens,Mtb growth,others
O=C(CSc1nc2ccccc2c(=O)n1-c1ccc(F)cc1F)Nc1ccc(N2CCOCC2)cc1,-3.4,1.0,6.1,1.1,5.0%,
COc1cccc(S(=O)(=O)NCc2ccc(C(=O)NCC3CCCO3)cc2)c1 (stereo not given),19.5,4.0,1.5,-8.2,1.0%,
Cc1cccnc1NC(=O)CCn1c(=O)oc2ccccc21,/,/,0.9,-3.9,/,
O=C(CNC(=O)c1ccccc1)NCC(=O)OCC(=O)c1ccc(F)cc1,13.3,9.1,-2.9,?,6.7%,

# (further entries)
SMILES,YopH inh,Arbovirus inh,RecA splice inh,Mtb bLac sens,Mtb growth,others
Cc1cccc(CC(=O)Nc2c3c(nn2-c2cccc(Cl)c2)CS(=O)C3)c1 (stereo not given),-21.9,3.8,1.4,?,1.8%,
Cc1cc(CN2CCCCC2)oc1C(=O)O,-20.2,4.3,-0.5,0.2,-3.6%,
CCCCCCCCN=Cc1c(O)[nH]c(=O)[nH]c1=O,/,/,-1.3,-2.7,16.0%,
O=C1OCCN1CC(=O)N1CCc2c([nH]c3ccccc23)C1c1ccccn1 (stereo not given),/,12.9,0.9,0.6,-1.8%,
COc1c(OC(C)=O)ccc(/C=C/c2ccc3cccc(OC)c3n2)c1[N+](=O)[O-],-24.6,3.1,18.5,-4.1,11.2%,
Cc1ccc2nc(NC(=O)CSc3ncnc4c3oc3ccccc34)sc2c1,-30.0,-13.8,0.1,/,/,
CCc1cccc2sc(N3CCN(C(=O)c4ccc([N+](=O)[O-])o4)CC3)nc12,/,/,-2.1,99.9,/,
COc1cc(C2C(C(=O)N3CCOCC3)=C(C)NC3=C2C(=O)CCC3)ccc1OC(C)=O (stereo not given),-21.8,-10.3,-3.5,3.9,-10.6%,
Cn1c(=NC(=O)CN2C(=O)C3CC=CCC3C2=O)sc2ccccc21 (stereo not given),-53.4,6.7,-1.6,-9.7,1.9%,
Cc1cc(C)cc(NC(=O)CN2CCC(NC(=O)c3cccc(F)c3)CC2)c1,/,/,-0.1,4.8,/,
COCCn1c(-c2ccccc2)cnc1SCC(=O)Nc1cccc2ccccc12,-15.1,37.6*,8.7,-0.8,1.4%,
C=CCN1C(=O)c2ccccc2Sc2ccc(C(=O)NCCC)cc21,/,/,3.7,2.8,/,
CN(Cc1ccccc1F)C(=O)COc1ccc(C(=O)c2ccccc2)cc1,/,/,-0.9,1.4,/,
O=C(Nc1ccc2c(c1)OCCO2)c1cccnc1Oc1ccc(Cl)cc1,/,/,6.0,14.8,10.8%,
